# Assay outcomes (PubChem)
# BJeLR viability – BJeLR cell viability loss; BJeLR (HRASV12) viability, CellTiter-Glo ATP luminescence, 48 h; reference of the scale not given here; 300,000 tested, 0.17% active; inhibition, % (no concentration beside the values);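 active = replicate mean above 50%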;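 note: 50 nL library stock added to about 25 µL; numbers are from one replicate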
# Sa ugtP lethal – compounds lethal to S. aureus RN4220 ugtP deletion mutant. OD600 growth, 16 h; some inactives read as strong as hits. growth inhibition, % (concentration not given with the values). 330,000 tested, 0.54% active;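 active = z-score under -3 and OD600 up to 0.15 on both plates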;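 note: plate controls were untreated wells for no effect and antibiotic for full effect; wells of about 80 µL received 100 nL stock; the first replicate is given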
# RN4220 kill – kills Staphylococcus aureus RN4220; S. aureus RN4220 growth, OD600, 16 h; inhibition, % (no concentration beside the values); 330,000 tested, 0.33% active; AID 1259311;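 active = z-score of -3 or lower and OD600 up to 0.18 on both plates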;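 note: plate controls were untreated cells for no effect and reference antibiotic for full effect; stock transfer was 100 nL into about 80 µL; one replicate is shown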
# Mtb hypoxia rep – Mtb hypoxia fluorescent reporter inhibition. M. tuberculosis hypoxia-regulated fluorescent reporter, fluorescence. AID 1159583. fluorescence inhibition, % (concentration not given with the values). 300,000 tested, 0.1% active;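 active = 35 to 45% if threefold the growth effect, above 45% if 1.5-fold the growth effect; inactive = the rest, general growth blockers included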;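 note: wells of about 50 µL received 100 nL stock; 0% = vehicle wells and 100% = reference inhibitor wells; whole bacteria with a GFP reporter of the hypoxia response; strong numbers were not always called active; many hits fall short of the cut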
# Bead autofluor – compound fluorescence in toxin protease inhibitor counterscreen | compound autofluorescence counterscreen, microsphere flow cytometry; stronger effect = higher value | fluorescence intensity (concentration not given with the values) | 360,000 tested, 3.1% active | AID 624483;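 active = at least 3 SD above the mean of all compounds, about 16000 in these data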;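 note: 100 nL of 1 mM stock went into each well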
# PrP 5UTR inh – suppresses PrP 5' UTR mRNA reporter expression; cell-based PrP 5' UTR mRNA reporter, plate reader; inhibition, % (concentration not given with the values); 340,000 tested, 0.35% active; AID 488862;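 active = every replicate at 50% or more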;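 note: 0 = median of the neutral control wells; tested in H4 reporter cells; numbers are from one replicate; inactives centre near -14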
# Mtb hypoxia rep growth – also measured in Mtb hypoxia rep; calls as there; growth inhibition, %; measured here: M. tuberculosis growth (absorbance);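 0% = vehicle and 100% = reference antibiotic; read after six days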
# The depositor's hits bear a star; nt = not tested or not shown.
SMILES,BJeLR viability,Sa ugtP lethal,RN4220 kill,Mtb hypoxia rep,Mtb hypoxia rep growth,Bead autofluor,PrP 5UTR inh
CCN1CCN(c2ncc3c(n2)CC(c2cc(OC)c(OC)c(OC)c2)CC3=O)CC1 (stereo unspecified),26.0,5.4,-2.8,0.8,7.6,4031,-2.0
CCCn1cnc2cc(NCc3ccc(Br)cc3)ccc21,3.3,7.2,5.0,2.2,8.5,4426,nt
COc1ccc(CNC(=O)CSc2nnc3c(n2)[nH]c2ccc(OC)cc23)cc1,-3.9,5.3,1.1,15.0,6.7,3723,-28.4
Cc1ccc(NC(=S)/N=C(\N)Nc2nc(C)c3cc(C)c(C)cc3n2)cc1C,-3.2,-5.7,4.7,-0.7,-2.8,5378,-19.6
COc1ccc(CN(C)CC(=O)Nc2ccc(Cl)cc2F)c(OC)c1,2.9,2.1,3.9,8.4,0.6,nt,nt
Cc1ccc(-c2nnc(SCC(=O)N(CC(C)C)c3c(N)n(Cc4ccccc4)c(=O)[nH]c3=O)n2N)cc1,4.8,13.6,-0.9,8.5,-3.9,4237,-13.1
Cc1c(C(=O)NCCN2C(=O)S/C(=C\c3cccnc3)C2=O)cccc1[N+](=O)[O-],-0.4,4.8,3.2,7.8,18.3,4233,-7.5
COc1cc(C(=O)CSc2nccn2C)cc(OC)c1OC,-1.8,0.8,2.8,18.8,4.6,6193,-12.7
CCN(CC)S(=O)(=O)c1ccc2oc(C(=O)NCc3ccc(C)cc3)c(C)c2c1,18.4,-6.0,13.0,8.1,5.5,4415,-27.0
O=C(O)CC(NC(=O)c1cccc([N+](=O)[O-])c1)c1ccc2c(c1)OCO2 (stereo unspecified),-3.7,-9.0,-1.7,-2.3,3.5,2235,-25.7
COc1ccccc1-n1c(=O)c2c3c(sc2n2c(=S)[nH]nc12)CCC3,1.5,9.2,3.5,-1.3,2.0,3283,-8.4
O=C(Nc1ccccc1)NC1(C(=O)N2CCC(O)CC2)CCCCC1,-5.1,8.3,6.3,-0.9,-8.3,2879,-6.5
O=C(c1cnc(Cl)c(Cl)c1)N1CCN(S(=O)(=O)c2ccc(F)cc2)CC1,-8.4,1.1,-4.7,-0.1,10.1,3734,1.8
O=[N+]([O-])c1cc(S(=O)(=O)CCCN2CCOCC2)ccc1F,-3.2,3.2,0.2,3.2,5.0,4211,7.3
O=c1[nH]ncc(NCc2ccc(Cl)cc2)c1Cl,0.6,0.0,1.9,5.0,6.4,4434,4.5
O=C(CCc1ccccc1)NC(NC(=S)Nc1cccc(Cl)c1)C(Cl)(Cl)Cl (stereo unspecified),2.6,-25.8,-7.6,18.1,5.2,11337,-10.8
COc1ccc(OC)c(S(=O)(=O)N2CCC(C(=O)NCc3ccccc3OC)CC2)c1,2.1,-6.2,0.9,nt,nt,2891,-3.3
O=C(NC1CCCCC1)C(c1ccc(O)cc1)N(CC1CCCO1)C(=O)C1COc2ccccc2O1 (stereo unspecified),4.1,2.4,5.9,3.2,7.2,20282*,-10.0
O=C(Cc1ccc(Br)cc1)c1ccc(O)cc1O,4.3,-12.6,-11.7,11.2,6.1,3302,-31.8
O=C1Nc2ccc([N+](=O)[O-])cc2OC1CCN1CCN(Cc2ccc3c(c2)OCO3)CC1 (stereo unspecified),-2.8,4.0,7.6,14.4,2.0,3190,-13.9
COc1cc(NC(=O)CN2CCC(Cc3ccccc3)CC2)c(C)cc1[N+](=O)[O-],-1.5,-3.9,-8.4,7.0,3.6,2045,-5.7
c1ccc(-c2nc(NCc3ccco3)c3oc4ccccc4c3n2)cc1,-9.8,-3.2,31.1,-1.1,-1.7,22249*,-9.8
CCN1CCCC1CNC(=O)c1ccc(N2CCCC2=O)cc1 (stereo unspecified),-2.2,8.6,4.3,nt,nt,3216,-20.8
COC(=O)c1[nH]c2ccccc2c1NC(=O)CN1CCN(C/C=C/c2ccccc2)CC1,-8.4,-8.2,1.9,3.5,12.4,6191,-13.6
COc1ccc(-n2nc3cc(C)c(NC(=O)C(C)C)cc3n2)cc1,-5.2,0.9,3.9,0.1,-0.3,nt,nt

# Ordered by heavy-atom count (rising): twelve of the compounds above.
SMILES,BJeLR viability,Sa ugtP lethal,RN4220 kill,Mtb hypoxia rep,Mtb hypoxia rep growth,Bead autofluor,PrP 5UTR inh
O=c1[nH]ncc(NCc2ccc(Cl)cc2)c1Cl,0.6,0.0,1.9,5.0,6.4,4434,4.5
CCCn1cnc2cc(NCc3ccc(Br)cc3)ccc21,3.3,7.2,5.0,2.2,8.5,4426,nt
COc1cc(C(=O)CSc2nccn2C)cc(OC)c1OC,-1.8,0.8,2.8,18.8,4.6,6193,-12.7
CCN1CCCC1CNC(=O)c1ccc(N2CCCC2=O)cc1 (stereo unspecified),-2.2,8.6,4.3,nt,nt,3216,-20.8
COc1ccc(-n2nc3cc(C)c(NC(=O)C(C)C)cc3n2)cc1,-5.2,0.9,3.9,0.1,-0.3,nt,nt
COc1ccccc1-n1c(=O)c2c3c(sc2n2c(=S)[nH]nc12)CCC3,1.5,9.2,3.5,-1.3,2.0,3283,-8.4
O=C(c1cnc(Cl)c(Cl)c1)N1CCN(S(=O)(=O)c2ccc(F)cc2)CC1,-8.4,1.1,-4.7,-0.1,10.1,3734,1.8
O=C(CCc1ccccc1)NC(NC(=S)Nc1cccc(Cl)c1)C(Cl)(Cl)Cl (stereo unspecified),2.6,-25.8,-7.6,18.1,5.2,11337,-10.8
CCN(CC)S(=O)(=O)c1ccc2oc(C(=O)NCc3ccc(C)cc3)c(C)c2c1,18.4,-6.0,13.0,8.1,5.5,4415,-27.0
COc1ccc(OC)c(S(=O)(=O)N2CCC(C(=O)NCc3ccccc3OC)CC2)c1,2.1,-6.2,0.9,nt,nt,2891,-3.3
COC(=O)c1[nH]c2ccccc2c1NC(=O)CN1CCN(C/C=C/c2ccccc2)CC1,-8.4,-8.2,1.9,3.5,12.4,6191,-13.6
O=C(NC1CCCCC1)C(c1ccc(O)cc1)N(CC1CCCO1)C(=O)C1COc2ccccc2O1 (stereo unspecified),4.1,2.4,5.9,3.2,7.2,20282*,-10.0

# Next structures:
SMILES,BJeLR viability,Sa ugtP lethal,RN4220 kill,Mtb hypoxia rep,Mtb hypoxia rep growth,Bead autofluor,PrP 5UTR inh
Cc1ccc(NC(=O)c2c(C)nc3ccccn23)cc1C,2.8,-0.7,1.9,4.6,5.4,4611,-19.7
CC(C)C(NC(=O)c1ccc(C(C)(C)C)cc1)C(=O)NC1=NCCS1 (stereo unspecified),1.4,-2.9,2.7,7.4,4.7,4397,-19.9
O=C(Nc1ccc(F)c(F)c1)C1CCCN1S(=O)(=O)c1ccc(F)cc1 (stereo unspecified),8.2,4.3,1.8,-0.7,6.8,5958,-12.9
COc1ccc(NC(=S)NC(C)Cc2cccs2)cc1 (stereo unspecified),-0.2,-1.1,1.4,6.1,5.6,2182,-21.2
CN(CCOc1ccccc1)Cc1nc2cc(Cl)ccc2c(=O)[nH]1,-1.5,3.1,2.9,1.8,-0.6,4419,-20.1
COc1ccc(C(=O)Nc2nc(C)cc(C)n2)cc1[N+](=O)[O-],-2.6,4.8,3.8,5.0,2.7,2407,-14.9
CCNNC(=O)C(O)(Cc1ccccc1)Cc1ccccc1,-4.6,1.9,5.5,6.5,6.1,3634,-11.2
Cn1c(SCC(=O)N2CCOCC2)nnc1-c1ccc2ncccc2c1,-4.4,7.2,1.4,5.5,-0.7,4741,1.4
CC1Cc2cc(C3(O)C(=O)c4ccccc4C3=O)ccc2N1 (stereo unspecified),-1.3,0.8,3.6,16.6,8.3,10470,-38.1
Cc1cc(NC(=O)c2cccc(Br)c2)no1,1.5,7.3,0.2,12.2,0.5,4687,-9.7
COc1ccc2c(COC(=O)[C@H](C)NS(=O)(=O)c3ccccc3F)cc(=O)oc2c1,nt,-2.8,4.1,3.5,-1.3,4117,-19.9
O=C(O)CSc1cnc2ccccc2n1,-15.6,-7.6,4.3,4.2,3.2,3001,-4.4
CN(C)S(=O)(=O)c1ccc(C(=O)NCC(=O)NN=Cc2ccco2)cc1,nt,3.5,0.4,-3.4,7.4,nt,nt
COc1ccc(CCNC(=O)C(C(=O)c2ccccc2)n2cc(Cl)ccc2=O)cc1OC (stereo unspecified),12.5,3.1,6.1,7.6,-1.7,2265,-27.5
CC1CCCCC1NC(=O)CSc1ccsc1[N+](=O)[O-] (stereo unspecified),nt,7.5,8.7,2.3,10.1,2559,-7.1
CC(C)CN1CCNC(=O)C1CC(=O)NCCCN1CCCc2ccccc21 (stereo unspecified),7.4,-3.1,3.6,8.2,-3.1,3781,-6.7
CCCCOC(=O)CCCc1ccc([N+](=O)[O-])cc1[N+](=O)[O-],4.8,0.6,8.4,4.2,9.6,2562,-23.6
CCCCNC(=O)C(=O)N/N=C/c1cccc(Br)c1,-0.5,nt,nt,nt,nt,2197,-6.4
Cc1ccc(C2CC(=O)c3cnc(N4CCc5ccccc5C4)nc3C2)cc1 (stereo unspecified),-3.3,20.5,-11.0,3.4,2.5,19424*,-21.4
S=C(NCCc1ccccc1)N1CCn2cccc2C1c1cccnc1 (stereo unspecified),-6.7,-5.7,1.9,5.4,-0.6,4741,-14.0
CC1CN(c2cc3nccnc3cc2F)CC(C)O1 (stereo unspecified),11.3,15.2,3.6,6.3,2.8,16271*,0.0
Cc1ccccc1NC(=S)NN=CC(C)c1ccccc1 (stereo unspecified),nt,5.9,6.7,13.7,7.2,nt,nt
COc1ccc(S(=O)(=O)Oc2cc(C(=S)N3CCOCC3)ccc2OC)cc1,9.7,3.6,0.5,7.2,1.9,6289,-18.9
CCC(C)NC(=O)C1(O)c2ccccc2NC(=O)N1c1ccc(C)c(C)c1 (stereo unspecified),-10.4,1.3,1.5,14.8,9.1,3987,-10.8
COC(=O)C1=C(CS(=O)(=O)c2cc(Cl)ccc2OC)NC(=O)NC1c1ccc(O)c(OC)c1 (stereo unspecified),5.3,9.7,6.2,0.0,-6.0,3657,-5.2

# (further entries)
SMILES,BJeLR viability,Sa ugtP lethal,RN4220 kill,Mtb hypoxia rep,Mtb hypoxia rep growth,Bead autofluor,PrP 5UTR inh
CC(=O)Nc1ccc(S(=O)(=O)Nc2ccccc2N2CCOCC2)cc1Cl,12.9,8.6,3.5,2.3,-4.1,6566,-8.1
CC(C)N=Cc1c(O)[nH]c2ccccc12,-2.1,-3.5,3.9,3.9,1.4,21450*,-12.0
COc1ccc(C=NOCC(=O)N=Nc2c(O)[nH]c3ccc(Br)cc23)cc1OC,nt,2.3,3.9,10.2,5.1,nt,nt
CC(C)CCN(C(=O)CNC(=O)c1cccs1)C(C(=O)NC1CCCCC1)c1cccnc1 (stereo unspecified),7.9,6.7,4.9,-8.2,7.1,3646,-8.9
Cc1cc(=O)[nH]c(SCC(=O)Nc2ccc(Br)cc2)c1C#N,-5.2,51.6,61.8,-1.5,8.3,4551,-6.9
O=[N+]([O-])c1ccc2c(c1)c1ccccc1n2CCO,-8.8,1.3,-4.3,8.2,8.5,4096,-24.0
CS(=O)(=O)N(CC(=O)N1CCCC1)c1ccccc1Br,1.8,1.5,3.2,6.6,12.9,3587,-21.4
Cc1nc2c3ccccc3nc(NNC(=O)CCC(=O)N3CCC(C)CC3)n2n1,4.5,4.4,2.8,-1.8,-3.2,5606,-6.8
COC(=O)c1[nH]c2ccc(C)cc2c1NC(=O)CN1CCCc2ccccc21,-5.1,-22.8,-1.2,1.4,15.2,5698,-11.0
COc1ccc(C(=O)COC(=O)CCNS(=O)(=O)c2ccc(NC(C)=O)cc2)c(OC)c1,0.0,5.3,1.6,4.1,1.0,3802,-12.6
O=C(NN=Cc1ccco1)c1cc(C2CC2)[nH]n1,nt,2.4,3.6,16.5,-4.0,nt,nt
COC(=O)c1cc(-c2ccc(Br)cc2)c2c(=O)n(C)c(=O)n(C)c2n1,6.2,1.9,2.5,11.5,6.0,3652,-24.1
Cc1ccc(OCC(=O)N/N=C/c2ccccc2)c([N+](=O)[O-])c1,3.7,nt,nt,nt,nt,4461,-14.5
COc1ccc(-c2nc(CS(=O)CC(=O)NCc3ccco3)c(C)o2)cc1 (stereo unspecified),-1.7,-3.8,-13.5,1.0,11.3,6142,-8.3
